BasE inh: blocks the Acinetobacter baumannii siderophore enzyme BasE; 0.1% of 84,000 active; inhibition, % (no concentration beside the values); purified BasE, fluorescence polarization binding displacement; AID 485350;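 active means both replicates above 25% with normal brightness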;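 further: 0% = negative plate control signal and 100% = positive plate control signal; stock transfer was 100 nL into about 30 µL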
LANA-nucl inh: LANA-nucleosome interaction inhibition | FITC-LANA1-23 / chicken nucleosome fluorescence polarization; hits give low values | z-score (concentration not given with the values) | 0.3% of 51,000 active | AID 720717;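 active means both repeat wells score below -2 in polarization z-score versus plate sample wells, excluding overly bright wells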;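 further: 100 nL library stock added to about 30 µL; numbers are from one replicate; some results filed as inactive read as strong as hits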
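Assay system: purified chicken nucleosomes with FITC-labelled LANA N-terminal peptide (1-23) / Probe or stimulus: 50 nM FITC-LANA1-23 probe / Compound dosing: pin-transferred compound, 100 nL / Times: compound with peptide–nucleosome mix 10–45 min at room temperature / Technique: fluorescence polarization, 480 nm excitation, 535 nm parallel and perpendicular emission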
An asterisk follows results filed as active; . = not tested or not shown; & = joins results of further samples. Not all compounds are listed; the hit share may differ from the screen's.

Results follow in this order: LANA-nucl inh, BasE inh
1) O=C(CSc1nccc(=O)[nH]1)Nc1cccc2ccccc12
  1, -0.8
2) Cc1oc(C(=O)O)cc1COc1ccc2c(-c3ccccc3)cc(=O)oc2c1
  0.061, 7.5
3) CNC(=O)c1cc(-c2ccc(OC)c(S(=O)(=O)N3CCOCC3)c2)on1
  0.58, -0.9
4) N#CC1CCn2c(cc3sccc32)C1=O (configuration not stated)
  -0.71, 3.5
5) NS(=O)(=O)c1ccc(CCNC(=O)CC2(CC(=O)O)CCCCC2)cc1
  ., -1.8
6) Cc1c2cnn(CC(=O)NCc3ccco3)c(=O)c2c(C)n1Cc1ccccc1
  3.2, -1.3
7) O=C1C2=C(Nc3[nH]c(=O)[nH]c(=O)c3C2c2cccs2)c2ccccc21 (configuration not stated)
  -0.057, 3.4
8) CCCCN(C(=O)c1cccc(S(=O)(=O)N2CCOCC2)c1)c1c(N)n(CCC)c(=O)[nH]c1=O
  ., 1.4
9) Cc1ccc(-c2nnn(CC(=O)c3ccc4[nH]c(=O)[nH]c4c3)n2)cc1
  ., -1.3
10) O=C(COC(=O)Cc1ccc(F)cc1)Nc1ccccc1
  ., 2.7
11) Cc1cc(/C=C(\C#N)C(=O)C(C)(C)C)c(C)n1-c1ccc(I)cc1
  ., -0.4
12) NC1=NC(=O)/C(=C\c2cc3ccccc3nc2N2CCCCC2)S1
  ., -3.2
13) Cn1c(=O)c2c(SCC(=O)N3CCCC3)nc(C3CC3)nc2n(C)c1=O
  -0.71, 1.1
14) CSc1ccc(S(=O)(=O)Nc2ccc(S(=O)(=O)N3CCCCCC3)cc2)cc1
  0.89, 1.6
15) CCCn1c(=O)c2sccc2n2c(CCCC(=O)N(C)Cc3ccco3)nnc12
  1.5, -0.5
16) CC(C)(C)NC(=O)[C@@H]1CN(Cc2cccnc2)CCN1C[C@@H](O)C[C@@H](Cc1ccccc1)C(=O)N[C@H]1c2ccccc2C[C@H]1O
  -0.33, .
17) CC(C)(C)c1ccc(CSCC(=O)Nc2ccccc2C#N)cc1
  ., -1.3
18) O=C(NC1CC1)C(Cc1ccccc1)NS(=O)(=O)c1ccccc1F (configuration not stated)
  ., 0.5
19) N#CCSc1nc2ccccc2c(=O)n1Nc1ccccc1
  ., -0.9
20) CCOC(=O)c1cn(-c2ccc(N3CCC(C)CC3)nn2)nc1N
  -0.13, 0.9
21) N=C1/C(=C\c2cccn2Cc2ccccc2)C(=O)N=C2SC(N3CCCCC3)=NN12
  -0.74, 1.7
22) N#CC1(c2ccccc2)CCCN1C(=O)c1ccco1 (configuration not stated)
  0.0075, 0.1
23) O=S1(=O)CC(S(=O)(=O)c2ccccc2)c2ccccc21 (configuration not stated)
  -0.57, 1.0
24) CC(=O)Nc1ccc(Oc2nc(C)cc(C)n2)cc1
  -1.1, -1.4
25) N=C1C(c2nc3ccccc3[nH]2)=C(O)CN1c1ccccc1
  2, 0.6
26) CCOC(=O)/C(C#N)=C/c1cn(-c2ccccc2)nc1-c1cccnc1
  ., 0.5
27) COc1ccc(C(=O)N=c2nc3ccccn3s2)cc1
  ., -0.5
28) COC(=O)CC1SC(=O)NC1=Nc1ccc(O)cc1 (configuration not stated)
  ., 0.0
29) CCCCOc1ccc(C(=O)NCCOC)cc1
  -1.8, 1.0
30) CN1C(N)=NC(=O)/C1=C/c1coc2ccccc2c1=O
  -1, 2.2
31) COC(=O)c1c2n(c3ccccc3c1=O)CCCS2
  2.3, -4.6
32) Cc1cc(C)nc(N2NC(c3ccccc3)C(C#N)=C2O)n1 (configuration not stated)
  0.17, .
33) CCCC1=NN(C(=O)C(C)(C)C)C(=O)C1Cc1c(F)cccc1Cl (configuration not stated)
  ., 0.3
34) O=C(C1CCN(Cc2ccccc2)CC1)N1CCN(c2ccccc2F)CC1
  -0.089, -1.3
35) Cc1ccnc(SCC(=O)/C=C2\N(C)c3ccccc3C2(C)C)n1
  ., -1.2
36) CC12CN(Cc3ccccc3)CC(C)(CN(Cc3ccccc3)C1)C2=O
  ., 1.9
37) CCCCN1C(=O)CC(C(=O)O)C1c1ccc(OC)cc1 (configuration not stated)
  ., -6.2
38) CCOC(=O)c1ccc(-c2ccc(/C=N/NC(=O)Cc3nc4ccccc4n3C)o2)cc1
  ., 0.9
39) Cc1ccc(-n2nc(C)c3c2NC2=C(C(=O)CC(C)(C)C2)C3c2ccc(C)o2)cc1 (configuration not stated)
  ., -1.5
40) O=C(NCc1cccs1)C1C2C=CC3(CN(Cc4cccs4)C(=O)C13)O2 (configuration not stated)
  0.24, 0.2
41) CC(C)CCNC(=O)C1(C)CCC(=O)N1CCc1ccccc1 (configuration not stated)
  1.6, -1.5
42) CN(C)C(=O)CN1c2ccccc2-c2ccccc2S1(=O)=O
  -0.21, .
43) Nc1nccc(-c2ccco2)n1
  2.3, .
44) CS(=O)(=O)N1CCC(C(=O)O)CC1
  0.34, 0.2
45) O=C(OCC(=O)N1CCN(C(=O)c2ccco2)CC1)c1ccccc1NS(=O)(=O)c1ccc(F)c(F)c1
  ., 2.4
46) CC(C)c1ccccc1NC(=O)c1ccc(Br)o1
  0.05, 5.5
47) Cc1onc(-c2ccccc2)c1C(=O)OCc1ncc(-c2ccccc2)o1
  ., 1.3
48) Cc1cccc(C(=O)OC(C(=O)c2ccccc2)c2ccccc2)c1O (configuration not stated)
  -0.0045, 0.6
49) O=C(O)CCCS(=O)(=O)c1ccccc1
  1.7, -2.5
50) CN(C)c1ccc(C2CC(c3ccc(Br)cc3)=NN2S(C)(=O)=O)cc1 (configuration not stated)
  ., -4.5

Following part:
Results follow in this order: LANA-nucl inh, BasE inh
51) CCN1CCN(CCCNC(=S)Nc2ccc3nc(N4CCN(CC)CC4)cc(C)c3c2)CC1
  0.34, -1.1
52) COc1ccc(CNC(=O)C(C)Sc2nnnn2C)cc1 (configuration not stated)
  ., -0.9
53) CC1(C(=O)NN)NC2(CCCCC2)Cc2ccccc21 (configuration not stated)
  0.19, 2.3
54) CC1(C)C2CCC1(C)C(NCc1ccccc1)C2 (configuration not stated)
  ., -0.5
55) O=C(O)c1cc2nc3c(c(C(F)(F)F)n2n1)CCC3
  -0.52, 0.8
56) CCN(CC(=O)Nc1cc(C)c2c(=O)oc3ccccc3c2n1)Cc1ccccc1
  -0.2, 4.0
57) Cc1ccc(C)c(NC(=S)NCCCO)c1
  0.071, 0.9
58) CCCN(CCC)C(=O)c1ccc(OC)cc1
  -1.7, -2.4
59) CN(C)c1ccc(/C=N/N2CC(O)=C(c3nc4ccccc4s3)C2=N)cc1
  ., 1.0
60) CCOC(=O)c1c(C)[nH]c(C)c1C(=O)COC(=O)c1ccc(F)c(S(=O)(=O)N2CCOCC2)c1
  ., -0.3
61) O=c1[nH]c2ccccc2n1CCCSc1nc2ccccc2[nH]1
  ., 1.3
62) O=C(/C=C/c1cccs1)NC1CCS(=O)(=O)C1 (configuration not stated)
  -0.67, -0.1
63) Cc1ccc(O)c(C(CC(=O)NCC2(c3ccccc3)CCOCC2)c2ccccc2)c1 (configuration not stated)
  ., -3.6
64) CC(NC(=S)NC1CCCCC1)C(c1ccccc1)N1CCN(C)CC1 (configuration not stated)
  0.22, 1.1
65) CCN(C(=O)c1ccc(Br)o1)C1CCS(=O)(=O)C1 (configuration not stated)
  -1.6, 2.9
66) Cc1cc(C)n2nc(C(=O)NC34CC5CC(CC(C5)C3)C4)nc2n1
  ., 1.5
67) COc1ccccc1NC(=O)CN(C)S(=O)(=O)c1ccc2c(c1)CC(C)N2C(=O)C1CC1 (configuration not stated)
  -0.43, 0.5
68) O=C(COc1ccccc1C(=O)O)NC1CCCc2ccccc21 (configuration not stated)
  ., -3.1
69) Cc1cc(C)c(C(=O)Nc2ccc(C)c(C)c2)c(CC(C)(C)C(=O)O)c1
  ., 1.8
70) CNC(=O)CSc1nnc(SCCC(=O)O)s1
  ., 0.8
71) COc1ccc(-c2csc(/N=C/N(C)C)n2)cc1OC
  ., 0.6
72) Fc1c(F)c(N2CCOCC2)c(F)c(F)c1-c1ccccc1
  -1.5, 1.0
73) CCOC(=O)C1=C(CSc2nnc(-c3cccnc3)n2Cc2ccccc2)NC(=O)NC1C (configuration not stated)
  ., -4.0
74) CCCn1c(NC(=O)CCNC(=O)c2ccco2)nc2ccccc21
  ., 2.7
75) Cc1cccc(-c2nc(CCNC(=O)/C=C/c3ccco3)cs2)c1
  1.2, -0.6
76) CS(=O)(=O)Cc1cccc(C(=O)Oc2ccccc2C#N)c1
  ., -1.2
77) Cc1ccc(-n2c(O)c(/C=N/c3ncn[nH]3)c3ccccc3c2=O)cc1
  ., -0.4
78) COCCN1Cc2cccc(C(=O)NCc3ccc(C)cc3)c2C1=O
  -0.45, -0.6
79) Cc1ccccc1NC(=O)CCCn1c(=O)c2cccn2c2ccccc21
  0.73, 2.1
80) C/C(=N\OCc1nc2c3cnn(C)c3ncn2n1)c1cccs1
  ., 1.9
81) CCOC(=O)N1CCN(C(=O)CCN2C(=O)/C(=C\c3ccco3)SC2=S)CC1
  0.45, -0.4
82) O=C(c1cccc2c1OCCCO2)N1CCSCC1
  -0.71, .
83) Cc1ccc(C(=O)Oc2ccccc2N2CCOCC2)cc1
  -0.0025, 1.6
84) CC(Sc1n[nH]c(N)n1)C(=O)C12CC3CC(CC(C3)C1)C2 (configuration not stated)
  ., 1.4
85) O=S(=O)(NCCc1cccs1)c1ccc2ccccc2c1
  -0.048, 1.8
86) COC(=O)/C=C/c1cncc2ccccc12
  0.61, .
87) COC(=O)c1ccc2c(=O)n(CCN3CCOCC3)c(SCC(=O)Nc3ccccc3OC)nc2c1
  -0.072, 2.9
88) CN(C)Cc1ccccc1C(O)c1ccccc1 (configuration not stated)
  -0.13, -3.0
89) CCOC(=O)c1cc2sc(C)cc2n1CC(=O)N1CCCCC1C (configuration not stated)
  -0.27, 1.1
90) C/C(=N\NC(=S)N1CCCC1)c1ccccc1
  -0.41, 0.6

Structural class: the entries above containing a tert-butyl group (4)
Results follow in this order: LANA-nucl inh, BasE inh
11) Cc1cc(/C=C(\C#N)C(=O)C(C)(C)C)c(C)n1-c1ccc(I)cc1
  ., -0.4
16) CC(C)(C)NC(=O)[C@@H]1CN(Cc2cccnc2)CCN1C[C@@H](O)C[C@@H](Cc1ccccc1)C(=O)N[C@H]1c2ccccc2C[C@H]1O
  -0.33, .
17) CC(C)(C)c1ccc(CSCC(=O)Nc2ccccc2C#N)cc1
  ., -1.3
33) CCCC1=NN(C(=O)C(C)(C)C)C(=O)C1Cc1c(F)cccc1Cl (configuration not stated)
  ., 0.3

More records
Results follow in this order: LANA-nucl inh, BasE inh
91) CN(C)N1C(N)=C(C#N)C(c2cccc(Cl)c2)C2=C1CC(C)(C)CC2=O (configuration not stated)
  -0.11, -0.5
92) O=C(Nc1ccc(I)cc1)c1nsc(Cl)c1Cl
  ., 0.1
93) CCN(CC)C(=O)COc1cccc2ccccc12
  ., -1.7
94) CCOC(=O)Nc1ccc2c(COC(=O)c3oc4ccc(Br)cc4c3C)cc(=O)oc2c1
  ., 1.4
95) O=C(Cc1ccc(Cl)cc1Cl)NC1CC1
  ., 0.6
96) Cc1cccn2c(=O)c(C=NCc3ccco3)c(Nc3ccc(Cl)cc3)nc12
  ., -1.0
97) N#CC1=C(N)N2C(=C(C#N)C13CCCC3)Nc1ccccc12
  -0.34, 1.5
98) O=C(NN=C1CCCC1)c1cccnc1
  -0.25, -1.2
99) CC1(C)CC(=O)c2cc(-c3ccccc3)n(CC(=O)O)c2C1
  -0.9, 0.4
100) COCCCn1c(=O)/c(=C\c2ccc(Br)cc2)s/c1=C(/C#N)C(=O)NCc1ccco1
  ., -1.8

Rewritten as tab-separated lines: entries from further up
#	Molecule	LANA-nucl inh	BasE inh
95	O=C(Cc1ccc(Cl)cc1Cl)NC1CC1	.	0.6
97	N#CC1=C(N)N2C(=C(C#N)C13CCCC3)Nc1ccccc12	-0.34	1.5
98	O=C(NN=C1CCCC1)c1cccnc1	-0.25	-1.2

Going on with the list.
Results follow in this order: LANA-nucl inh, BasE inh
101) Cc1ccc(S(=O)(=O)N(Cc2nc(-c3ccccc3)no2)C2CCCCC2)cc1
  -0.25, 1.1
102) COc1ccc(C(=O)COC(=O)c2ccc(N(C)C)cc2)cc1
  ., 1.1
103) Nc1ccc(Cc2nc3ccccc3s2)cc1
  ., -0.1
104) COc1cccc(CNCc2ccccc2)c1
  0.25, -1.6
105) O=c1ccc(S(=O)(=O)N2CCCC2)cn1Cc1cc(=O)n2cc(Br)ccc2n1
  ., 0.6
106) O=C(OCc1nc2sc3c(c2c(=O)[nH]1)CCCC3)c1cc2c(s1)CCC2
  ., 2.5
107) COC(=O)C1=CN(CCCN2CCCC2=O)C=C(C(=O)OC)C1c1cccs1
  1.2, -1.9
108) CN(C)CC/C=C1/c2ccccc2COc2ccccc21
  0.33&0.42&-0.64, -3.4
109) CSc1ccccc1C(=O)NC(C)C
  -2.1, 2.9
110) c1ccc2c(c1)C(=NCC1CCCO1)NC2=NCC1CCCO1 (configuration not stated)
  ., 0.5
111) Cc1ccc(C2NC(=O)c3c(sc4c3CCC(C(C)(C)C)C4)N2)o1 (configuration not stated)
  0.61, -0.3
112) COc1ccccc1-c1nnc(Cc2ccc(F)cc2Cl)o1
  -0.36, -0.2
113) Nc1nc(Cl)cc(N2CCCCC2)n1
  2.6, -2.8
114) Cc1oc(-c2ccccc2)nc1C(=O)OC(C)c1nc2sc(C)c(C)c2c(=O)[nH]1 (configuration not stated)
  ., 1.0

Bioassay records as filed in PubChem.
